Screens from PubChem.
HCMV NEC inh: inhibitors of HCMV UL50-UL53 interaction, biochemical, HTRF; normalized percent inhibition; inhibition, % (concentration not given with the values); HCMV UL50-UL53 nuclear egress complex (human cytomegalovirus); AID 1918969, 2023; actives 0.15% (n = 190,000);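 active = both replicates at 50% or more, plus weaker picks with an unusually low signal ratio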;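 also: stock transfer was 100 nL into about 20 µL; 0% = negative control wells and 100% = wells with untagged competitor protein; inactives centre near -12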
Sa growth 42C: S. aureus growth inhibition at 42 and 30 °C, primary screen, LtaS inhibitor project, RN4220, two temperatures; OD600, 20 h, 42 °C; hits give low values; relative growth, % (no concentration beside the values); actives 0.53% (n = 170,000); AID 720641, 2013;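 active = growth at 42 °C up to 50% and 20 or more points under that at 30 °C, or under 10% at both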;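 also: 300 nL library stock went into each well; scaled to the means of positive and negative controls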
GIV Gai3 FP: inhibitors of GIV peptide binding to Galpha-i3, primary screen, biochemical, fluorescence polarization, FITC-GIV GBA peptide, rat Galphai3; Guanine nucleotide-binding protein G(i) subunit alpha-3 (Rattus norvegicus), P08753; 90 min; hits give low values; scaled: aluminum fluoride 0%, vehicle 100%; percent of control (FP), % (concentration not given with the values); actives 0.42% (n = 210,000);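 active = replicate mean at 85% of control or lower, very high polarization wells dropped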;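 also: wells of about 15 µL received 100 nL stock; the first replicate is given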
Target sequence (P08753 whole entry, looked up): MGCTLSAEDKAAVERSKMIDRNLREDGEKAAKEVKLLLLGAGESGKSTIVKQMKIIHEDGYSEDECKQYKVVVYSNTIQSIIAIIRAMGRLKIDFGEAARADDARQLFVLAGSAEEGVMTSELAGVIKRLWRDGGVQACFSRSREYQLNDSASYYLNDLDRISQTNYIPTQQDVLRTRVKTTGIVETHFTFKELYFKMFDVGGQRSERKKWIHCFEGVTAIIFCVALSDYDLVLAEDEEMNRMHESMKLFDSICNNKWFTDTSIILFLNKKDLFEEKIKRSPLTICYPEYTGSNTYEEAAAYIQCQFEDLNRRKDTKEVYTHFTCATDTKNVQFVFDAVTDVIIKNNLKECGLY
Sa growth 42C second temp: further read-out of Sa growth 42C, marked with its call; relative growth, %; measured here: growth at 30 °C;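 optical density after 20 h as mean of two plates; 100% = untreated growth and lower means inhibition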
Active calls of the source: *; x = no result given; & = joins results of further samples. Not a hit list; overall some 0.83% were active at least once.

SMILES | HCMV NEC inh | Sa growth 42C | Sa growth 42C second temp | GIV Gai3 FP
CCc1ccc(C2c3c(n[nH]c3C)C(=O)N2c2ccc(Br)cc2)cc1 (stereo not given) | -22 | x | x | 99
Cc1ccc(NS(=O)(=O)c2ccc(-n3cccn3)cc2)cc1Cl | x | 106 | 91 | 108
CCCCNC(=O)n1ccc(-c2nn(-c3ccc(F)cc3)ccc2=O)n1 | -19 | 113 | 92 | 105
CCCC(O)c1nc2ccccc2n1CCCOc1cccc(C)c1 (stereo not given) | -8 | x | x | 110
C/C(=N\NC(=O)COc1ccccc1C)c1ccccc1O | -11 | 102 | 96 | x
O/N=C/c1cc(Cl)cc(Cl)c1 | -8 | 110 | 100 | 111
CC(=O)c1cccc(NC(=O)Cn2nc(C)n3cccc3c2=O)c1 | 5 | 98 | 87 | 113
CCc1c(C)nc2ncnn2c1Nc1ccc(C)cc1C | -16 | x | x | 101
Cc1ccc(-c2cc3nccc(-c4cc(Cl)c(C)cc4O)n3n2)cc1 | -27 | x | x | 92
CCOc1ccc(OCC)c(NC(=O)C2CCCN(S(=O)(=O)c3ccc4c(c3)oc(=O)n4C)C2)c1 (stereo not given) | -11 | 109 | 73 | 107
C#CCNC(=O)Nc1ccc(C)cc1 | 12 | 101 | 101 | x
CCOc1ccccc1-c1noc(CCCC(=O)Nc2cccc(C(F)(F)F)c2)n1 | -13 | 105 | 82 | 97
CCOC(=O)C1=C(c2ccccc2)N=C2SCC(=O)N2C1c1ccc(O)c(OC)c1 (stereo not given) | -31 | 107 | 84 | 102
COc1ccc(CCn2nnc3ccccc3c2=O)cc1OC | -27 | 102 | 90 | 105
COC(=O)c1ccc(Cn2nc(C(F)(F)F)cc2C)o1 | -13 | 101 | 89 | 103
O=S1(=O)CCC(NC2CCS(=O)(=O)C2)C1 (stereo not given) | -13 | 99 | 86 | x
O=C1CCCC2=C1C(c1cccs1)Nc1ccccc1N2 (stereo not given) | -18 | 85 | 87 | 101
COc1ccccc1NCc1nc2nc(C)cc(=O)n2[nH]1 | -22 | x | x | 104
CSc1cccc(NC(=O)CSc2nncn3c2cc2occc23)c1 | -40 | 93 | 76 | 117
Cc1ccccc1-c1noc(N2CCC(C(=O)N3CCOCC3)CC2)n1 | 10 | x | x | 108
CC(=O)N1C(NCc2ccccc2)CC(C)N1c1ccccc1 (stereo not given) | -14 | 99 | 79 | x
CC1N=C2c3ccccc3N=C(SCC(=O)NCc3ccc(Cl)cc3)N2C1=O (stereo not given) | x | 91 | 84 | 103
Cc1ccc(C(=O)N/C(=C/c2ccccc2F)C(=O)N2CCCCC2)cc1 | 4 | 99 | 93 | x
CCN(CC)C(=O)C(C(=O)c1ccccc1)n1cc(Cl)ccc1=O (stereo not given) | -5 | 98 | 91 | x
Cc1ccc2nc(NCc3ccc(C(=O)O)cc3)c(-n3nc(C)cc3C)nc2c1 | -4&-23 | 124 | 83 | 98&97
CCCCn1c(SCC(=O)O)nc2ccccc21 | -8 | 105 | 95 | 107
CC(=O)c1ccc(NC(=O)c2noc3c2CSc2ccccc2-3)cc1 | -13 | 94 | 83 | 102
CCN=C1SC(C(=O)Nc2ccc(Br)cc2)CC(=O)N1CC (stereo not given) | -9 | 86 | 87 | 98
O=C(COC(=O)c1cccc(I)c1)c1ccc(-n2nncc2-c2ccco2)cc1 | -22 | 103 | 84 | 99
O=C(CSc1nc2ccsc2c(=O)n1Cc1ccc(F)cc1)NCc1ccc(Cl)cc1 | x | 114 | 90 | 101

Arranged by number of heavy atoms (smallest number first): some entries from above
SMILES | HCMV NEC inh | Sa growth 42C | Sa growth 42C second temp | GIV Gai3 FP
CCCCn1c(SCC(=O)O)nc2ccccc21 | -8 | 105 | 95 | 107
O=C1CCCC2=C1C(c1cccs1)Nc1ccccc1N2 (stereo not given) | -18 | 85 | 87 | 101
CCN(CC)C(=O)C(C(=O)c1ccccc1)n1cc(Cl)ccc1=O (stereo not given) | -5 | 98 | 91 | x

Exported as tab-separated lines: part of the list above
Structure	HCMV NEC inh	Sa growth 42C	Sa growth 42C second temp	GIV Gai3 FP
Cc1ccc(NS(=O)(=O)c2ccc(-n3cccn3)cc2)cc1Cl	x	106	91	108
CCCCNC(=O)n1ccc(-c2nn(-c3ccc(F)cc3)ccc2=O)n1	-19	113	92	105
CCCC(O)c1nc2ccccc2n1CCCOc1cccc(C)c1 (stereo not given)	-8	x	x	110

(continued)
SMILES | HCMV NEC inh | Sa growth 42C | Sa growth 42C second temp | GIV Gai3 FP
Cc1ccc(C)c(CSCc2nc3ccccc3[nH]2)c1 | x | 101 | 95 | 99
Oc1ccc(Br)c2cccnc12 | -9 | 73 | 27 | 108
CCOC(=O)c1c(-c2ccccc2)csc1NC(=O)c1ccc2c(c1)CC(c1ccccc1)OC2=O (stereo not given) | -14 | x | x | 105
CCOc1cccc(C2Nc3ccccc3NC3=C2C(=O)CC(c2ccc(OC)c(OC)c2)C3)c1 (stereo not given) | -28 | x | x | 90
CC(=O)Nc1ccc(Nc2c3c(c(C#N)c4nc5ccccc5n24)CCC3)cc1 | -8 | 118 | 110 | 88
N#Cc1c(SCC(=O)NC23CC4CC(CC(C4)C2)C3)sc2c(=O)[nH]c(=O)[nH]c12 | x | 83 | 77 | 103
O=C1c2ccccc2C(O)N1Cc1ccccc1 (stereo not given) | -22 | 103 | 82 | 104
O=c1[nH]c(Nc2nc3ccccc3[nH]2)nc2cc(Cl)ccc12 | -5 | 102 | 105 | x
COc1ccc(NC(=O)C2CCCN2S(=O)(=O)c2cc3c(cc2C)NC(=O)CO3)cc1 (stereo not given) | -8 | x | x | 104
COc1ccc(CCN(C)C(=O)c2ccc3c(c2)C(=O)N(Cc2ccco2)C3=O)cc1OC | -37 | 75 | 95 | x
CCn1c(C(=O)O)c(CNCCc2ccccc2)c2ccccc21 | x | 99 | 92 | 116
CCOc1ccc(-c2nnc(SCC(=O)NC3CCCC3)nc2-c2ccc(OCC)c(OC)c2)cc1OC | x | 89 | 94 | 100
N#C/C(=C\N1CCOCC1)C(=O)Nc1ccc(F)c(Cl)c1 | -44 | 93 | 90 | 105
COC(=O)c1c(Oc2ccc(C(C)=O)cc2)nnc(-c2ccccc2)c1-c1ccccc1 | -10 | 103 | 105 | 104
COc1cc(OC)c(C2Nc3c(C)cc(C)cc3-c3cc(C)nn32)cc1OC (stereo not given) | -40 | 88 | 86 | 100
O=C(Cn1ncc2ccc(Cl)cc21)NCc1ccc(F)cc1 | 16 | 110 | 96 | 99
CCn1c2c(c(=O)n3ncc(C(=O)Nc4ccc(F)c(Cl)c4)c13)CN(Cc1ccc(OC)cc1)CC2 | x | 97 | 83 | 103
CC1CCc2onc(C(=O)N3CCN(c4ccc(Cl)cc4)CC3)c2C1 (stereo not given) | x | 113 | 96 | 103
CC1=C(C(=O)OC2CCCC2)C(c2cccc(F)c2F)CC(=O)N1 (stereo not given) | 4 | 113 | 106 | 105
COc1ccc(CCN(Cc2nc3ccccc3c(=O)[nH]2)C(=O)c2ccco2)cc1 | 11 | 121 | 100 | 106
O=C(CCc1nc(-c2cc3ccccc3[nH]c2=O)no1)N1CCCCC1 | -55 | x | x | 107
CCOC(=O)c1ccc(NC(=O)Cn2c3c(sc2=O)C2c4ccccc4OCC2CS3)cc1 (stereo not given) | -24 | 107 | 93 | 106
Cc1ccc(NC(=O)c2cc(S(=O)(=O)N(C)C3CCCCC3)ccc2F)cc1C | x | 112 | 82 | 99
C=CCn1c(SCC(=O)c2ccccc2F)nc2sc(C)c(C)c2c1=O | 0 | x | x | 113
CCN(Cc1ccccc1)C(=O)CN1C(=O)COc2ccc(S(=O)(=O)N3CCOCC3)cc21 | x | 134 | 86 | 109
CC1(C)Oc2ccc3ccc(=O)oc3c2C(/C=N/O)=C1Cl | -48 | 71 | 83 | 96
COc1ccc(-c2nsc(NC(=O)COc3ccc(C)c(C)c3)n2)cc1 | -10 | 98 | 91 | 93
CC1CCCC(N(Cc2ccco2)C(=O)NCc2noc3ccccc23)C1C (stereo not given) | x | 81 | 62 | 100
CC(C)C(=O)N1c2ccccc2C(Nc2ccccc2)CC1C (stereo not given) | -15 | 93 | 84 | 104
Nc1ccc(C(=O)N/N=C2\CCCc3ccccc32)cc1 | -27 | 74 | 88 | x
O=C(OCc1nnc(-c2ccccc2)o1)c1cccnc1SCc1nnc(-c2ccccc2)o1 | -44 | 18 | 9 | x
Cc1nn(-c2ccccc2)nc1C(=O)Nc1ccccc1C(=O)NCC1CC1 | -32 | 91 | 88 | 107
COCCNC(=O)c1ccc(Oc2ccccc2)cc1 | -10 | 93 | 88 | x
CCCCNCc1cccn1-c1ccccc1 | -12 | 110 | 84 | 100
O=S(=O)(c1ccc(Cl)cc1)N(CCc1ccccn1)c1ccccc1 | x | 110 | 95 | 115
CC(C)(C)c1ccc(S(=O)(=O)NCc2nc(N)n(S(=O)(=O)c3ccc(C(C)(C)C)cc3)n2)cc1 | -8 | x | x | 106
O=C(Nc1cccc(C(=O)N2CCN(c3ccccc3F)CC2)c1)c1nsc2ccccc12 | x | 106 | 95 | 106
Nc1ccc(CCNc2ncnc3c2ncn3C2OC(CO)C(O)C2O)cc1 (stereo not given) | -14 | x | x | 105
CC(C)c1nc2ccc(C(=O)NCCCN3CCN(c4ccc(F)cc4)CC3)cc2o1 | x | 97 | 84 | 102
CCS(=O)(=O)c1ncc(Cl)c(C(=O)Nc2sc3c(c2C(=O)NCC2CCCO2)CCC3)n1 (stereo not given) | 17 | x | x | 107
O=C(CCc1cn(Cc2ccc(F)cc2)c2ccccc12)NCC1CCCO1 (stereo not given) | x | 115 | 79 | 105
O=C(O)CC(CC(=O)Nc1ccc(Oc2ccccc2)cc1)c1ccccc1 (stereo not given) | -37 | 89 | 87 | 102
Cc1nc(-c2cc3cccc(C)c3nc2NCCc2ccccn2)no1 | -11 | x | x | 105
N#Cc1cccc(NC(=O)Nc2ccc3c(c2)OCC(=O)N3Cc2ccccc2)c1 | 17 | 85 | 75 | 97
CCOCCCNC(=O)C(c1ccccc1)N1Cc2ccccc2C1=O (stereo not given) | x | 95 | 90 | 110

Of the compounds above, these contain a cyano group:
SMILES | HCMV NEC inh | Sa growth 42C | Sa growth 42C second temp | GIV Gai3 FP
CC(=O)Nc1ccc(Nc2c3c(c(C#N)c4nc5ccccc5n24)CCC3)cc1 | -8 | 118 | 110 | 88
N#Cc1c(SCC(=O)NC23CC4CC(CC(C4)C2)C3)sc2c(=O)[nH]c(=O)[nH]c12 | x | 83 | 77 | 103
N#C/C(=C\N1CCOCC1)C(=O)Nc1ccc(F)c(Cl)c1 | -44 | 93 | 90 | 105
N#Cc1cccc(NC(=O)Nc2ccc3c(c2)OCC(=O)N3Cc2ccccc2)c1 | 17 | 85 | 75 | 97

Other entries
SMILES | HCMV NEC inh | Sa growth 42C | Sa growth 42C second temp | GIV Gai3 FP
O=C(O)CC1SC(c2ccc3c(c2)OCO3)=NC1=O (stereo not given) | -22 | 87 | 68 | 99
CCOc1ccc(CN(C)CC(=O)c2c(N)n(Cc3ccccc3)c(=O)n(CC)c2=O)cc1OC | -10 | 95 | 97 | x
CCOC(=O)C1=C(C)NC2=C(C(=O)CC(c3ccc(OC)c(OC)c3)C2)C1c1ccc(OC)c(OC)c1OC (stereo not given) | -12 | x | x | 104
Cn1c(=O)c2c(-c3ccccc3)n3c(c2n(C)c1=O)C(c1cccc(O)c1O)Nc1ccccc1-3 (stereo not given) | -3 | x | x | 106
CCC(C)NC(=O)c1ccc2c(=O)n(C(C)C)c3nn(CC(=O)NC(C)(C)C)c(=O)n3c2c1 (stereo not given) | -31 | x | x | 104
CC(C)Oc1ccc(CNC(=O)c2sc3ncccc3c2-n2cccc2)cc1 | x | 106 | 93 | 103
CCc1ccc(NC(=O)CCc2c(C)nc3nc(-c4cc(OC)cc(OC)c4)nn3c2C)cc1 | 16 | 92 | 98 | 107
CCN1CCN(c2ncnc3c2c(-c2ccccc2)cn3-c2ccc(Cl)cc2)CC1 | x | 110 | 94 | 102
CCn1c(=O)[nH]c(=O)c2c(N)c(C(=O)c3ccccc3OC)sc21 | -58 | 91 | 97 | x
Cc1nc2cc(C(=O)NC3CCCCCC3)ccc2n1-c1ccc(Br)cc1 | x | 94 | 98 | 100
Cc1nn(C(C)C(=O)NCCc2ccccc2)c(=O)c2c1sc1ccccc12 (stereo not given) | 11 | 78 | 82 | 108
COc1ccc(C2CC(=O)C3=C(C2)NC(C)=C(C(=O)OCCOc2ccccc2)C3c2ccc(OC(C)=O)c(OC)c2)cc1 (stereo not given) | -26 | x | x | 95
CCOC(=O)c1ccc(NC(=S)NCCOC23CC4CC(CC(C4)C2)C3)cc1 | -23 | 59 | 54 | x
NC(=O)C1(N2CCCCC2)CCN(C(=O)c2ccccc2)CC1 | -23 | 93 | 84 | 103
O=C1c2ccccc2C(=O)N1Cc1ccccc1 | -14 | 101 | 90 | 104
O=C(NC1CCSC1=O)c1ccc(Br)cc1 (stereo not given) | -22 | 97 | 108 | 94
Cc1cc(C)cc(-n2ccn(CC(=O)Nc3ccccc3C(F)(F)F)c(=O)c2=O)c1 | -29 | 122 | 94 | 101
COc1ccc(C(=O)NCc2ccc3c(c2)CCN3C(=O)c2ccc(C)cc2)cc1 | x | 125 | 94 | 103
